# Assay outcomes as filed in PubChem.
# Lassa entry inh: Lassa virus entry inhibition. AID 540256. Lassa virus pseudotype entry inhibition, cell reporter; control for the full effect not named in the record. Potency, µM (highest dose often 37.9 µM), without a hit: top-dose activity change, negative = inhibition, hits mostly inhibitors. 1.2% of 300,000 active; active means well fitted inhibition curve with a large enough effect; inconclusive means small, poorly fitted or top-dose-only effect, or effect the other way; inactive means flat fitted curve, though single readings scatter; tested in HEK293 cells; further: on the % scale 0 is the no-effect control and ±100 the full control effect; nearly all actives have a fitted effect of over 50% in size; luciferase read-out
# Cruzain inh Det: inhibitors of Trypanosoma cruzi cruzain with detergent. P25779. purified cruzain, Z-FR-AMC fluorescence, 0.01% Triton. Potency, µM, inactives show max response, negative = inhibition, hits mostly inhibitors. 0.43% of 200,000 active;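 further: plate controls were neutral wells for no effect and buffer without enzyme for full effect; nearly all actives have a fitted effect of over 40% in size; top concentration of the series not given in the record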
# Target sequence (P25779 123-467 limits assumed): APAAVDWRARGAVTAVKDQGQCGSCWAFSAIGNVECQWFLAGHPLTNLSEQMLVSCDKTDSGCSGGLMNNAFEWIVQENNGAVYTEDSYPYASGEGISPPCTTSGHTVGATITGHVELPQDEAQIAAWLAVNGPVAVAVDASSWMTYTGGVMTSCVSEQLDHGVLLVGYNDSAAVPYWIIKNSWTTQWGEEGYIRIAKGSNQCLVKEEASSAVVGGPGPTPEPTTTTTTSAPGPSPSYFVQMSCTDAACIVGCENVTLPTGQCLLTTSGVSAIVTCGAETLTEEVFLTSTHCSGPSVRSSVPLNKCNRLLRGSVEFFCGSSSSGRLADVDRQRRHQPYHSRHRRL
#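 Cysteine protease activity tested under reducing, mildly acidic conditions (100 mM sodium acetate pH 5.5, 5 mM DTT) plus 0.01% Triton X-100. Cruzain 1.5 nM; substrate Z-FR-AMC 2 uM; 15 min compound preincubation at room temperature.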
# SARS PLpro yeast: blocks SARS-CoV papain-like protease in a yeast assay; AID 485353; S. cerevisiae expressing SARS-CoV PLpro, growth rescue; control for the full effect not named in the record; Potency, µM (highest dose often 32.9 µM), without a hit: at the top dose activity, positive = growth rescue; 0.19% of 330,000 active; active means well fitted rising curve with a large enough effect; inconclusive means small, poorly fitted or top-dose-only effect; inactive means no such curve, though single readings can be large or run the other way; further: 0% is about no effect; nearly all actives have a fitted effect of over 55% in size; growth read by luminescence after 48 h
# StopGo reporter: lowers the luciferase signal of an FMDV 2A StopGo reporter. human cells with a luciferase reporter of 2A StopGo recoding; control for the full effect not named in the record. AID 1159524. Potency, µM (highest dose often 57.9 µM), for the others: at the highest dose signal change, negative = less light. 1.2% of 410,000 active; active = well fitted falling curve with a large enough effect; inconclusive = small, poorly fitted or top-dose-only effect; inactive = no such curve, though single readings can be large or run the other way; tested in HEK293T cells; further: on the % scale 0 is the no-effect control and ±100 the full control effect; nearly all actives have a fitted effect of over 45% in size; luciferase light after 4 h
# Cruzain noTriton: blocks cruzain activity in detergent-free assay | P25779 | purified cruzain, Z-FR-AMC fluorescence, no detergent | Potency, µM, inactives show max response, negative = inhibition, usual class: inhibitors | 2.3% of 200,000 active | AID 1476;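 further: plate controls were enzyme without inhibitor for no effect and buffer without enzyme for full effect; nearly all actives have a fitted effect of over 40% in size; top concentration of the series not given in the record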
#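 Detergent-free condition (0.00005% Triton X-100) in acetate buffer pH 5.5 with DTT. 1.5 nM enzyme and compound were pre-mixed 15 min, then 2 uM Z-FR-AMC substrate added; reaction progress from fluorescence change between first and third reads (60 s).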
# NS1 function inh: blocks influenza NS1 protein function; S. cerevisiae slowed by influenza A NS1, growth recovery by OD600; 0.4% of 270,000 active; AID 2326; Potency, µM (titrated, usually from 46.1 µM), for inactives: at the highest dose activity, positive = more growth; active means well fitted rising curve with a large enough effect; inconclusive means small, poorly fitted or top-dose-only effect; inactive means no such curve, though single readings can be large or run the other way; further: nearly all actives have a fitted effect of over 50% in size
#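 Compounds were scored for reversing the slow growth caused by influenza A NS1 in S. cerevisiae, measured by optical density at 600 nm. Assay medium contained 2% galactose at pH 6.0; NS1-free yeast of the same strain were the positive control.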
# RE007 growth inh: less growth of the S. pombe RE007 Vpr strain. 0.21% of 360,000 active. Potency, µM (doses to about 92.2 µM), for the others: at the top dose activity change, negative = less growth. S. pombe RE007 Vpr strain, BacTiter-Glo ATP luminescence, 24 h; control for the full effect not named in the record. AID 651644; active = well fitted falling curve with a large enough effect; inconclusive = small, poorly fitted or top-dose-only effect; inactive = no such curve, though single readings can be large or run the other way;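 further: on the % scale 0 is the no-effect control and ±100 the full control effect; nearly all actives have a fitted effect of over 50% in size; the assay follows cell death caused by Vpr and the record does not say whether a fall means rescue or toxicity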
#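 Fission yeast strain RE007, carrying one chromosomally integrated HIV-1 vpr copy, was seeded at OD 0.01 in PMG+AL medium with 23 nL pinned compound. After 24 h at 30 °C and 99% humidity, viability was read by BacTiter-Glo luminescence.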
# MARV entry inh: Marburg virus entry inhibition; 1.8% of 300,000 active; Marburg virus pseudotyped entry inhibition, cell reporter; control for the full effect not named in the record; about a third of the inactives were read at about 46 µM; Potency, µM (titrated, usually from 37.8 µM), for inactives: at the top dose activity change, negative = inhibition, actives largely listed as inhibitors; active = well fitted inhibition curve with a large enough effect; inconclusive = small, poorly fitted or top-dose-only effect, or effect the other way; inactive = flat fitted curve, though single readings scatter; tested in HEK293 cells; about a fifth of its hits are not listed in these tables; further: on the % scale 0 is the no-effect control and ±100 the full control effect; luciferase read-out
# Active calls of the source: *; ? = inconclusive; . = not tested or not shown; & = joins results of further samples; [ ] = dose if it differs, or a comment. Unless noted, the call rests on the fitted dose curve; in most records, active means well fitted curve in the direction sought with a large enough effect; inconclusive means small, poorly fitted or top-dose-only effect, or another doubt; inactive means no such curve, though single readings can be large; an effect the other way counts as inactive or inconclusive. Potency means the concentration at half of the fitted maximal effect.
SMILES,Lassa entry inh,Cruzain inh Det,SARS PLpro yeast,StopGo reporter,Cruzain noTriton,NS1 function inh,RE007 growth inh,MARV entry inh
Cc1cc(NC(=O)c2ccccc2Oc2ccccc2)no1,-26%,2.3%,-2%,.,-5%,-8%,2%,16%
O=C1c2ccccc2C(Nc2ccc(S(=O)(=O)N3CCCCCC3)cc2)N1Cc1ccco1 (stereo unspecified),.,-8.0%,1%,0%,?,-77%,1%,6%
CC(C)(C)CN1CCNC(=O)C1CC(=O)NCCN1CCCc2ccccc21 (stereo unspecified),17%[46.1 µM],.,-1%,-9%,.,-4%,-1%,-17%[46.1 µM]
CCN(CC(=O)Nc1cccc(S(=O)(=O)N2CCCCC2)c1)Cc1ccccc1,?,.,1%,-15%,.,.,-7%,?
CN1CCN(NC(=O)/C=C/c2cccc(Cl)c2)CC1,.,.,-1%,-3%,.,17%,12%,.
CCOC(=O)c1c(NC(=O)c2nn(C)cc2[N+](=O)[O-])sc(C)c1C,11%,.,0%,6%,.,-1%,0%,6%[46.1 µM]
CNc1oc(C)nc1S(=O)(=O)c1ccc(C)cc1,14%,-0.9%,1%,9%,-5%,-5%,13%,-9%
COc1ccc(C(=O)Nc2ccc3oc(-c4cccnc4)nc3c2)cc1,5%[46.1 µM],-2.2%,.,-15%,2%,.,.,-22%[46.1 µM]
CCn1cc(/C=C/C(=O)Nc2ccn(Cc3c(F)c(F)cc(F)c3F)n2)cn1,5%,-12%,-13%,-9%,-8%,2%,2%,?
O=C(Nc1ccc(-c2n[nH]c(=S)o2)cc1)c1ccccc1Cl,.,.,0%,0%,.,-15%,6%,.
CN(c1cc(=O)n2ccccc2n1)C1CCCCC1,13%,-1.7%,9%,-6%,-12%,-60%,-18%,-5%
Cn1c(=O)cc(NCc2ccccc2)[nH]c1=O,-3%,-1.1%,10%,-14%,-4%,17%,0%,10%&10%[46.1 µM]
COc1ccccc1OCCC(=O)OCC(=O)NCc1ccccc1,-1%,0.8%,3%,-1%,-2%,-2%,4%,5%
COCCCNC(=O)c1ccc(CS(=O)(=O)c2ccccc2C)o1,6%[46.1 µM],.,8%,2%,.,0%,-2%,28%[46.1 µM]
COCCN1Cc2cccc(C(=O)NCc3ccc4c(c3)OCO4)c2C1=O,?,0.1%,29%,-17%,0%,?,21%,?
N#Cc1sc(C(N)=O)c(-c2ccccc2)c1-c1ccccc1,-15%[46.1 µM],.,0%,-21%,.,-2%,8%,-4%[46.1 µM]
CC1CC2(O)c3no[n+]([O-])c3CCC2N1O (stereo unspecified),-4%,2.3%,1%,-3%,0%,3%,1%,6%
COC(=O)c1ccc(C(=O)Nc2ccc(-c3nc4cc(NC(=O)c5ccc(C(=O)OC)cc5)ccc4o3)cc2)cc1,?,-0.1%,.,-3%,-11%,.,.,.
COc1ccc2cc3c(nc2c1)OCC3,.,.,-1%,37%[activator],.,-17%,4%,.
COCCNC(=O)[C@H]1C[C@@H]1[C@H](NP(=O)(c1ccccc1)c1ccccc1)c1ccccc1,-4%,-2.0%&1.7%,-4%,-24%,?,-10%,8%,-16%
CSc1ccc(CCNC(=O)CN2C(=O)c3cccnc3Oc3ccc(C)cc32)cc1,?,.,4%,?,.,-4%,7%,-9%[46.1 µM]
Cn1cccc1-c1nc2ccc(NC(=O)c3ccco3)cc2[nH]1,-10%,-9.6%,-7%,20%,-4%,-7%,0%,?
CCNc1nc(NCC)nc(C(=O)OCCO)n1,.,5.2%,3%,1%,8%,7%,17%,.
CCn1c(=N)c(C(=O)NCc2ccccc2)cc2c(=O)n3cc(C)ccc3nc21,-21%[46.1 µM],0.4%,.,0%,-3%,.,.,?
Oc1c(C=Nc2ccc(Cl)cn2)sc2ccccc12,?,.,-2%,-6%,.,-31%,3%,?
Nc1nc2ccccc2n1Cc1ccc(Cl)c(Cl)c1,2%[46.1 µM],.,-4%,?,.,-1%,-5%,10µM*
Cc1cc([N+](=O)[O-])nn1CCCC(=O)Nc1ccc2c(c1)OCO2,11%,.,6%,0%,.,6%,-16%,1%
COc1ccc(Cn2c(CCC(=O)Nc3ccc(C)cc3C)nc3cccnc32)cc1,-3%[46.1 µM],1.0%,.,-16%,19%,.,.,-11%[46.1 µM]
O=C(O)/C=C/C(=O)NCc1ccccn1,2%,.,0%,12%,.,.,4%,31%[46.1 µM]
Cc1nc(NCc2ccco2)nc2c1C(=O)CC(C)C2 (stereo unspecified),3%,-1.7%,-2%,-16%,4%,-4%,7%,-2%
CC(=O)c1c(C)[nH]c(C(=O)OCC(=O)N2c3ccccc3NC(=O)C2(C)C)c1C,8%,0.4%,-12%,-26%,2%,-6%,2%,-23%
Cc1noc(C)c1C(=O)N1CCN(S(=O)(=O)c2cccs2)CC1,0%,.,.,-3%,.,.,2%,18%
COc1ccc2oc(C(=O)c3ccccc3)c(N)c2c1,?,-1.9%,-7%,31%[activator],-7%,-35%,-16%,?
CCOC(=O)NC(=O)/C(C=Nc1ccc(Cl)cc1)=C(\C)O,-14%,.,3%,-3%,.,.,0%,-4%[46.1 µM]
COc1cc(C(=O)OCc2nc3ccsc3c(=O)[nH]2)c([N+](=O)[O-])cc1OC,13%,.,2%,?,.,.,-26%,-14%
CCN(CC)S(=O)(=O)c1ccc(OC)c(NC(=O)c2cc(=O)[nH]c3ccccc23)c1,?,.,2%,-11%,.,-12%,-15%,-1%[14.2 µM]
CCOC(=O)NC(=O)c1cn(N(C)c2ncc(C(F)(F)F)cc2Cl)c(=O)[nH]c1=O,9%,.,-4%,11%,.,.,5%,-3%[46.1 µM]
Nc1c(S(=O)(=O)c2ccccc2)c2nc3ccccc3nc2n1CCN1CCOCC1,-11%,-14%,26%,42%[activator],5%,-34%,8%,18%
CCOC(=O)c1c(C)nn(-c2ccc(NC(=O)c3c(C)noc3C)cc2)c1C,?,.,0%,-54%,.,-2%,5%,?
COc1cccc(C(=O)CC(C(=O)O)c2ccc(F)cc2)c1 (stereo unspecified),-3%[46.1 µM],.,0%,-10%,.,.,-3%,9%[46.1 µM]
COc1cc2cc(C)c3nnc(SCC(=O)Nc4cc(C)on4)n3c2cc1OC,-15%[46.1 µM],.,2%,10%,.,.,-16%,-1%[46.1 µM]
O=C(NNC(=S)Nc1ccccc1)c1ccncc1,21%,4.1%,-1%,36%[activator],1%,6%,0%,19%
CC(=O)N=C1SC2CS(=O)(=O)CC2N1Cc1ccc(C)cc1 (stereo unspecified),-3%[46.1 µM],.,1%,5%,.,1%,6%,-4%[46.1 µM]
CN(C)/C=C/c1oc2ccc(O)cc2c1[N+](=O)[O-],17%,.,1%,42%[activator],.,.,?,-2%[46.1 µM]
CCCn1c(=O)n(C)c(=O)c2c(SCC(=O)NCC(c3ccccc3)N(C)C)nc(CC(C)C)nc21 (stereo unspecified),?,.,4%,-30%,.,-2%,-11%,?
COc1cccc(O)c1CN1CCC(C(=O)Nc2ccc(Oc3cccnc3)cc2)CC1,-26%,.,3%,-10%,.,15%,-7%,11µM*
O=C(COC(=O)Cc1ccccc1F)Nc1cc(S(=O)(=O)N2CCOCC2)ccc1N1CCCC1,-5%,-8.6%,1%,-14%,14%,0%,17%,13%
COc1cc(NC(=O)Cn2c(=O)n(Cc3ccccc3)c(=O)c3oc4ccccc4c32)cc(OC)c1,-16%[46.1 µM],-3.7%,.,-25%,?,.,.,.

# Retrieved by compound from above:
SMILES,Lassa entry inh,Cruzain inh Det,SARS PLpro yeast,StopGo reporter,Cruzain noTriton,NS1 function inh,RE007 growth inh,MARV entry inh
Cc1cc(NC(=O)c2ccccc2Oc2ccccc2)no1,-26%,2.3%,-2%,.,-5%,-8%,2%,16%
COc1cccc(C(=O)CC(C(=O)O)c2ccc(F)cc2)c1 (stereo unspecified),-3%[46.1 µM],.,0%,-10%,.,.,-3%,9%[46.1 µM]
CCn1c(=N)c(C(=O)NCc2ccccc2)cc2c(=O)n3cc(C)ccc3nc21,-21%[46.1 µM],0.4%,.,0%,-3%,.,.,?
CC(C)(C)CN1CCNC(=O)C1CC(=O)NCCN1CCCc2ccccc21 (stereo unspecified),17%[46.1 µM],.,-1%,-9%,.,-4%,-1%,-17%[46.1 µM]
N#Cc1sc(C(N)=O)c(-c2ccccc2)c1-c1ccccc1,-15%[46.1 µM],.,0%,-21%,.,-2%,8%,-4%[46.1 µM]

# Results in RE007 growth inh and StopGo reporter (2 entries from above):
mol	RE007 growth inh	StopGo reporter
COc1cc2cc(C)c3nnc(SCC(=O)Nc4cc(C)on4)n3c2cc1OC	-16%	10%
O=C(NNC(=S)Nc1ccccc1)c1ccncc1	0%	36%[activator]

# Quoted from the listing:
# StopGo reporter with `Oc1c(C=Nc2ccc(Cl)cn2)sc2ccccc12` → -6%
# SARS PLpro yeast with `CCN(CC(=O)Nc1cccc(S(=O)(=O)N2CCCCC2)c1)Cc1ccccc1` → 1%
# RE007 growth inh with `CSc1ccc(CCNC(=O)CN2C(=O)c3cccnc3Oc3ccc(C)cc32)cc1` → 7%

# New compounds follow:
SMILES,Lassa entry inh,Cruzain inh Det,SARS PLpro yeast,StopGo reporter,Cruzain noTriton,NS1 function inh,RE007 growth inh,MARV entry inh
Cc1cc(NC(=O)CSc2nnc(-c3ccncc3)n2-c2ccc(F)cc2)no1,23%,.,0%,2%,.,.,-7%,-6%[46.1 µM]
CC(C)c1ccc2c(c1)-c1ccccc1S(=O)(=O)N2CC(=O)N1CCCCC1,4%[46.1 µM],-0.1%,.,42%[activator],-5%,.,.,?
COCCNC(=O)c1nn2cccnc2c1Cl,12%,2.5%,4%,4%,-5%,0%,20%,17%
O=C(Nc1ccc(Cl)cc1F)C1CCN(S(=O)(=O)c2cccnc2)CC1,1%,1.0%,-5%,-19%,-11%,-1%,-2%,-28%
Cc1ccccc1NC(=O)c1ccc2nc(N3CCOCC3)sc2c1,.,.,-2%,-14%,.,-17%,10%,.
